# PrP UTR inh: suppresses PrP 5' UTR mRNA reporter expression; inhibition, % (test concentration not listed); actives 0.35% (n = 340,000); cell-based PrP 5' UTR mRNA reporter, plate reader;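 active means every replicate at 50% or more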;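 further: 0 = median of the neutral control wells; tested in H4 reporter cells; numbers are from one replicate; inactives centre near -14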
# Mtb hypoxia inh: reduces hypoxia-regulated biosensor signal in M. tuberculosis | M. tuberculosis hypoxia-regulated fluorescent reporter, fluorescence | fluorescence inhibition, % (concentration not given with the values) | actives 0.1% (n = 300,000) | AID 1159583;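 active means 35 to 45% if threefold the growth effect, above 45% if 1.5-fold the growth effect; inactive means the rest, general growth blockers included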;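 further: wells of about 50 µL received 100 nL stock; 0% = vehicle wells and 100% = reference inhibitor wells; whole bacteria with a GFP reporter of the hypoxia response; strong numbers were not always called active; many hits fall short of the cut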
# ugtP null kill: compounds lethal to S. aureus RN4220 ugtP deletion mutant; actives 0.54% (n = 330,000); growth inhibition, % (concentration not given with the values); AID 1259309; OD600 growth, 16 h; some inactives read as strong as hits;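 active means z-score under -3 and OD600 up to 0.15 on both plates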;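 further: plate controls were untreated wells for no effect and antibiotic for full effect; wells of about 80 µL received 100 nL stock; the first replicate is given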
# Sa RN4220 lethal: S. aureus RN4220 growth inhibition. OD600, 16 h. inhibition, % (test concentration not listed). actives 0.33% (n = 330,000). AID 1259311;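 active means z-score of -3 or lower and OD600 up to 0.18 on both plates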;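 further: plate controls were untreated cells for no effect and reference antibiotic for full effect; stock transfer was 100 nL into about 80 µL; one replicate is shown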
# BJeLR lethal: kills HRASV12-expressing BJeLR cells; BJeLR (HRASV12) viability, CellTiter-Glo ATP luminescence, 48 h; reference of the scale not given here; actives 0.17% (n = 300,000); inhibition, % (concentration not given with the values);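 active means replicate mean above 50%; inconclusive means above 50% but judged a plate artefact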;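 further: 50 nL library stock added to about 25 µL; numbers are from one replicate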
# Bead autofluor: counter-screen for toxin protease inhibitors: compound fluorescence; compound autofluorescence counterscreen, microsphere flow cytometry; stronger effect = higher value; actives 3.1% (n = 360,000); fluorescence intensity (test concentration not listed);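 active means at least 3 SD above the mean of all compounds, about 16000 in these data; inconclusive means too few beads counted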;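 further: 100 nL of 1 mM stock went into each well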
# Mtb hypoxia inh growth: further read-out of Mtb hypoxia inh, marked with its call; growth inhibition, %; measured here: M. tuberculosis growth (absorbance);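 0% = vehicle and 100% = reference antibiotic; read after six days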
# Numbers without * were called inactive; ? = inconclusive; nt = not tested or not shown.
SMILES,PrP UTR inh,Mtb hypoxia inh,Mtb hypoxia inh growth,ugtP null kill,Sa RN4220 lethal,BJeLR lethal,Bead autofluor
COc1ccc2cc(C(=O)N3CCN(c4ccc(F)cc4)CC3)[nH]c2c1,-35,1,15,10,3.9,-7,3716
Cc1ccsc1C=NNC(=O)C(N)=O,nt,14,1,4,3.5,nt,nt
COc1ccc(C2C3=C(CC(C)(C)CC3=O)N(C)C3=C2C(=O)CC(C)(C)C3)cc1OC,-10,5,2,6,0.7,3,3989
CCC(C)c1ccccc1NC(=S)NC(=O)c1ccco1 (configuration not stated),-14,6,9,-26,-2.2,-16,?
COc1ccccc1C(=O)NCCC(=O)Nc1cccc(C)n1,-19,1,1,-1,1.0,-3,5783
Cn1c(Cn2nnc3ccccc32)nnc1SCC(=O)N1c2ccccc2CCc2ccccc21,-29,12,4,13,2.0,0,6355
C=CCn1c(COc2ccccc2F)nnc1SCC(=O)c1c[nH]c2ccccc12,3,12,10,-13,2.2,-6,11014
COc1ccc(CN(C)C(=O)CC(c2ccccc2)c2ccccc2)cc1,-19,7,9,17,-0.1,4,3100
CCOc1ccc(NC(=O)c2cn(CC(C)C)c(=O)c3c2c2ccccc2n3C)cc1,-28,0,-3,12,4.3,-3,10206
Cc1cccc(-c2nc3cc([N+](=O)[O-])ccc3o2)c1,-68,2,8,8,4.9,-4,4081
Cn1c(NC(=O)c2ccc(C(C)(C)C)cc2)cc(=O)n(C)c1=O,-1,5,7,2,0.4,nt,4301
CC(C)(C)C(=O)CN1C2=NCCN2c2ccccc21,-2,-8,4,-4,15,5,2459

# Sorted by count of non-hydrogen atoms (low to high): part of the list above
SMILES,PrP UTR inh,Mtb hypoxia inh,Mtb hypoxia inh growth,ugtP null kill,Sa RN4220 lethal,BJeLR lethal,Bead autofluor
Cc1cccc(-c2nc3cc([N+](=O)[O-])ccc3o2)c1,-68,2,8,8,4.9,-4,4081
Cn1c(NC(=O)c2ccc(C(C)(C)C)cc2)cc(=O)n(C)c1=O,-1,5,7,2,0.4,nt,4301
Cn1c(Cn2nnc3ccccc32)nnc1SCC(=O)N1c2ccccc2CCc2ccccc21,-29,12,4,13,2.0,0,6355

# More results follow.
SMILES,PrP UTR inh,Mtb hypoxia inh,Mtb hypoxia inh growth,ugtP null kill,Sa RN4220 lethal,BJeLR lethal,Bead autofluor
CCOC(=O)c1c(NC(=O)OC)sc(C(=O)N(C)C)c1C,-12,-1,7,-5,-9.4,6,2504
O=S(=O)(/N=C(/Nc1ccccn1)c1ccccc1)c1ccccc1,-68,nt,nt,nt,nt,13,13255
O=C1C(C=NCCCn2ccnc2)=C(O)c2ccccc21,-21,8,3,-7,1.9,-1,4063
Cc1ccc(-n2cc(C(=O)c3cc(Cl)ccc3O)cc(C#N)c2=O)cc1,-7,3,5,11,-2.7,-2,2388
CC1CCCCN1CC(=O)Nc1cc(S(=O)(=O)N2CCOCC2)ccc1N1CCCC1 (configuration not stated),-16,11,0,4,-4.3,-3,6131
COC(=O)c1[nH]c2ccc(C)cc2c1NC(=O)Nc1ccccc1OC,-15,nt,nt,19,-2.4,-2,2128
CC(C)(C)NC(=O)Cn1nc(C(F)(F)F)c2c1CCCC2,-10,10,-12,7,4.5,4,4514
NNC(=O)CCN(Cc1ccco1)S(=O)(=O)c1ccc(Cl)cc1,-9,0,1,9,3.5,-8,4404
C=CCc1ccc(OCC(O)CN2CCN(c3ccccc3OC)CC2)c(OC)c1 (configuration not stated),-28,-6,10,14,3.1,1,3895
C=CCOc1cccc(C(=O)N2CCCC(CCC(=O)NCc3ccccc3F)C2)c1 (configuration not stated),-23,9,4,5,8.7,5,4201
Cc1cc2cc(CNC(=O)COc3ccccc3)ccc2n1C,-19,-2,3,2,1.7,-13,2787
Cc1nc2ccccc2c(=O)n1-c1ccncc1,-19,7,0,-3,1.9,-6,3472
Fc1ccc(-n2nnc(-c3cccnc3Cl)n2)cc1,-41,2,4,3,14,9,3908
Cc1cc(C)cc(NC(=O)CCn2c(=S)[nH]c3ccccc3c2=O)c1,-8,-3,-4,2,7.7,3,4483
CN(C[C@H](Cc1ccccc1)N(C[C@H](Cc1ccccc1)N(CCc1cc(C(F)(F)F)cc(C(F)(F)F)c1)N=O)N=O)N=O,-24,0,-2,8,20,-2,3898
CCOC(=O)Cc1csc(NC(=O)c2cc(-c3ccncc3)nc3ccccc23)n1,-4,15,43,-19,5.0,nt,8667
CC(NC(=O)/C(=C\c1ccco1)NC(=O)c1ccccc1Br)C(=O)O (configuration not stated),-7,1,6,6,0.8,-15,2335
Cc1ccccc1-n1c(SCC(=O)NCc2cccs2)nc2ccccc2c1=O,8,8,9,-7,-0.1,6,2035
O=C(Cn1nnc(-c2ccc(F)cc2)n1)N1CCCCC1,-3,-12,2,3,3.7,-4,4103
CCCCn1c(=S)[nH]c2ccc(N3CCOCC3)cc2c1=O,nt,13,8,6,7.7,-8,nt
O=C(O)C1CC(=O)n2c(nc3ccccc32)S1 (configuration not stated),-17,nt,nt,nt,nt,1,3354
O=C(NC(Cc1ccc(O)cc1)C(=O)O)c1ccc2c(c1)OCO2 (configuration not stated),5,-8,-7,-2,-0.3,nt,6033
Cc1ccccc1CS(=O)(=O)CCC(=O)NCCCN1CCN(c2ccccc2F)CC1,-20,3,5,-3,3.5,4,2456
CCN(CC)CCN(C(=O)Cn1nnc(-c2ccc(C)o2)n1)C(C(=O)NC(C)(C)C)c1cccs1 (configuration not stated),-23,-13,-8,1,2.1,-6,4513
COCCCNC(=O)CSc1nc2ccccc2c(=O)n1Cc1ccc2c(c1)OCO2,-10,14,5,3,-1.3,-6,3668
Cc1ccc(C(=O)C2(C)N(O)C(C)C(c3cccs3)=[N+]2[O-])cc1 (configuration not stated),-11,11,6,10,-0.6,-3,7256
O=C(Nc1cccs1)Nc1cccnc1Cl,-28,9,12,7,-0.6,0,4610
O=C(CN(CC1CCCO1)C(=O)CNS(=O)(=O)c1ccccc1)NCCc1ccccc1 (configuration not stated),-16,16,4,6,4.4,8,3769
O=C(CCCn1c(=O)c2ccccc2n(CC(=O)NCc2ccco2)c1=O)NCc1ccco1,-14,nt,nt,5,-2.7,12,2627
CCO[C@H]1OC(C(N)=O)=C[C@@H](c2coc3ccccc3c2=O)[C@@H]1CCCO,-11,nt,nt,nt,nt,1,3420
Cn1c(N2CCN(C(=O)Nc3ccc(C(F)(F)F)cc3)CC2)nc2ccccc21,8,3,-1,4,-1.2,-11,3206
CC(=O)N1CCN(S(=O)(=O)c2ccc(C)cc2)C1c1ccc(N(C)C)cc1 (configuration not stated),-5,-1,11,3,-2.3,-4,?
COc1ccccc1N(CC(=O)N1CCCC1)S(=O)(=O)c1cc([N+](=O)[O-])ccc1Cl,-16,1,-1,12,6.2,nt,4606
COc1ccccc1NC(=O)N(Cc1ccc2c(c1)OCO2)Cc1nc2ccccc2c(=O)[nH]1,-10,nt,nt,-6,-0.3,7,4501
CC(C)c1ccc(N2CC(C(=O)Nc3nccs3)CC2=O)cc1 (configuration not stated),-19,4,-3,3,3.0,0,10367
Cc1ccc(N=Cc2c(O)c3ccccc3n(C)c2=O)cc1,-8,13,4,2,0.5,8,4241
COc1cccc(Nc2nc3cc(OC)ccc3cc2C#N)c1,-18,15,-2,8,8.0,4,4466
Fc1ccc(NC(=S)N2CCN(c3cccc(C(F)(F)F)c3)CC2)cc1,-22,3,-1,-10,-2.6,2,2045
CC(C)CN1CCN(CCCc2ccccc2)C(CCO)C1 (configuration not stated),-3,7,6,3,2.3,-7,3617
O=C(Nc1cc2cccc([N+](=O)[O-])c2oc1=O)c1cccs1,-30,-2,-3,4,1.0,0,2564
O=C(/C=C/c1ccccc1[N+](=O)[O-])c1ccc(F)cc1,-36,14,1,6,9.3,-2,3207
O=C(NCc1ccco1)c1cc([N+](=O)[O-])ccc1N1CCOCC1,-34,3,4,-1,4.2,0,4057
O=C(Nc1ccncc1)c1ccc(N2CCCC2=O)cc1,-24,3,4,7,1.4,5,?
O=C(NCCN1CCOCC1)c1cc(-c2ccc(Cl)s2)nc2ccccc12,-18,-12,-3,-9,-4.7,-15,3591
O=C(NCC1CCCO1)C(C(=O)c1ccccc1)n1cc(Cl)ccc1=O (configuration not stated),-11,1,10,-7,2.0,-9,19704*
O=C1NC(=O)C(c2ccccc2)(c2ccc(Cl)cc2Cl)N1 (configuration not stated),-9,8,10,-4,5.4,nt,?
COc1cc2cc(CN(CCN3CCOCC3)C(=O)Nc3ccc(F)cc3)c(=O)[nH]c2cc1OC,-14,9,2,2,0.2,2,3376
Cc1cc(-c2ccc(C(C)C)c(S(=O)(=O)N3CCC(C)CC3)c2)on1,-3,-2,3,57,-1.0,1,4380
COc1ccc(Br)cc1CNc1ccc2[nH]c(=O)[nH]c2c1,-17,4,6,-10,-2.3,10,4147
Cc1[nH]c2ccccc2c1C(c1ccncc1)N1CCN(c2ccc(F)cc2)CC1 (configuration not stated),-16,-2,-8,-6,1.9,-1,2335
COc1ccc(CCNC(=O)CCc2ccc(S(=O)(=O)NCC(C)C)cc2)cc1OC,-17,-1,15,6,5.0,12,4680
CC1(C)Cc2c(sc(/N=C/N3CCCCCC3)c2C#N)C(C)(C)N1,17,nt,nt,nt,nt,-4,2487
CC(C)CC(=O)N(Cc1ccc(F)cc1)C1CCS(=O)(=O)C1 (configuration not stated),-24,11,2,0,3.5,1,2313
CCC(C)NC(=O)/C=C1\Sc2ccccc2NC1=O (configuration not stated),-18,nt,nt,nt,nt,14,9124
CCn1c(SCC(=O)Nc2ccc(C(=O)OC)cc2)nnc1-c1cccs1,-43,18,7,1,2.2,nt,8815
CCOC(=O)Cn1cnc2c(cnn2-c2ccccc2)c1=O,-5,13,6,9,4.9,-5,3340
CCOc1cc(C)c(C(C)C)cc1S(=O)(=O)NCc1ccccn1,-3,-1,-2,9,8.8,6,15588
Cc1nc(SCC(=O)NC2CCS(=O)(=O)C2)c2c3c(sc2n1)CCCC3 (configuration not stated),-16,1,0,7,3.8,nt,6016
CCOC(=O)Nc1ccc(OC)cc1S(=O)(=O)N1CCCCC1,-31,0,-9,0,1.2,8,2957
CC1(c2ccc3ccccc3c2)NC(=O)N(CC(=O)N2CCC(C(N)=O)CC2)C1=O (configuration not stated),-25,5,-1,10,6.4,-3,4538

# An excerpt of these results, with bars between the fields.
Structure | PrP UTR inh | Mtb hypoxia inh | Mtb hypoxia inh growth | ugtP null kill | Sa RN4220 lethal | BJeLR lethal | Bead autofluor
Cc1[nH]c2ccccc2c1C(c1ccncc1)N1CCN(c2ccc(F)cc2)CC1 (configuration not stated) | -16 | -2 | -8 | -6 | 1.9 | -1 | 2335
COc1ccc(CCNC(=O)CCc2ccc(S(=O)(=O)NCC(C)C)cc2)cc1OC | -17 | -1 | 15 | 6 | 5.0 | 12 | 4680
CC1(C)Cc2c(sc(/N=C/N3CCCCCC3)c2C#N)C(C)(C)N1 | 17 | nt | nt | nt | nt | -4 | 2487
CC(C)CC(=O)N(Cc1ccc(F)cc1)C1CCS(=O)(=O)C1 (configuration not stated) | -24 | 11 | 2 | 0 | 3.5 | 1 | 2313
CCC(C)NC(=O)/C=C1\Sc2ccccc2NC1=O (configuration not stated) | -18 | nt | nt | nt | nt | 14 | 9124

# More results:
SMILES,PrP UTR inh,Mtb hypoxia inh,Mtb hypoxia inh growth,ugtP null kill,Sa RN4220 lethal,BJeLR lethal,Bead autofluor
Cc1cc(C(=O)NN=Cc2cc(Cl)cc([N+](=O)[O-])c2O)n[nH]1,nt,13,20,0,7.4,nt,nt
O=C(CSc1nc2ccccc2[nH]1)c1cccs1,-119,5,6,9,4.3,1,3183
Cc1noc(C)c1S(=O)(=O)N1CCCC(C(=O)c2cccc(OC(C)C)c2)C1 (configuration not stated),-23,0,-7,6,7.3,2,4288
CC(CC(=O)Nc1ccc2c(c1)OCO2)=NNC(=O)c1ccccc1N,nt,6,7,1,0.9,nt,nt
COc1cccc(OCc2cc(C(=O)NCc3cnc4ccccn34)no2)c1,0,5,8,0,-0.1,14,5814
Cc1ccc(N2CCN(C(=O)NC3CCCCC3)CC2)c(C)c1,6,3,13,1,-0.8,-2,3872
O=C(Nc1ccc2c(c1)OCO2)Nc1ccccc1F,-91,0,4,-3,3.4,18,5559
CS(=O)(=O)N1N=C(c2ccco2)CC1c1cccc([N+](=O)[O-])c1 (configuration not stated),1,11,8,-1,2.7,-2,3578
CN(c1ccccc1)c1nc(N)c([N+](=O)[O-])c(NCc2ccco2)n1,-2,-7,7,-9,-5.7,4,2549
Cc1nonc1C(=O)NN=Cc1cc2c(cc1Br)OCO2,nt,-3,-3,6,0.7,nt,nt
Cc1nc(SCC(=O)NC(C)(C)C)c2c(-c3cccs3)csc2n1,1,-2,9,3,-4.7,1,2056
